SARS PLP yeast = blocks SARS-CoV papain-like protease in a yeast assay; S. cerevisiae expressing SARS-CoV PLpro, growth rescue; control for the full effect not named in the record; actives 0.19% (n = 330,000); Potency, µM (highest dose often 32.9 µM), without a hit: top-dose activity, positive = growth rescue; active means well fitted rising curve with a large enough effect; inconclusive means small, poorly fitted or top-dose-only effect; inactive means no such curve, though single readings can be large or run the other way; further: 0% is about no effect; nearly all actives have a fitted effect of over 55% in size; growth read by luminescence after 48 h
StopGo reporter = FMDV 2A StopGo reporter, luciferase signal. Potency, µM (titrated, usually from 57.9 µM), for inactives: at the highest dose signal change, negative = less light. actives 1.2% (n = 410,000). human cells with a luciferase reporter of 2A StopGo recoding; control for the full effect not named in the record; active = well fitted falling curve with a large enough effect; inconclusive = small, poorly fitted or top-dose-only effect; inactive = no such curve, though single readings can be large or run the other way; tested in HEK293T cells; further: on the % scale 0 is the no-effect control and ±100 the full control effect; nearly all actives have a fitted effect of over 45% in size; luciferase light after 4 h
RE007 growth inh = less growth of the S. pombe RE007 Vpr strain; S. pombe RE007 Vpr strain, BacTiter-Glo ATP luminescence, 24 h; control for the full effect not named in the record; Potency, µM (top dose mostly 92.2 µM), inactives show top-dose activity change, negative = less growth; actives 0.21% (n = 360,000); AID 651644; active = well fitted falling curve with a large enough effect; inconclusive = small, poorly fitted or top-dose-only effect; inactive = no such curve, though single readings can be large or run the other way;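 further: on the % scale 0 is the no-effect control and ±100 the full control effect; nearly all actives have a fitted effect of over 50% in size; the assay follows cell death caused by Vpr and the record does not say whether a fall means rescue or toxicity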
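Fission yeast strain RE007, carrying one chromosomally integrated HIV-1 vpr copy, was seeded at OD 0.01 in PMG+AL medium with 23 nL pinned compound. After 24 h at 30 °C and 99% humidity, viability was read by BacTiter-Glo luminescence.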
Starred values were filed as active, the others as inactive; ? = inconclusive; [ ] = dose if it differs, or a comment. Potency means the concentration at half of the fitted maximal effect. These rows are one share of the data; the hit share may differ from the screen's.

SMILES | SARS PLP yeast | StopGo reporter | RE007 growth inh
COc1cc(C(=O)NCc2ccc(S(N)(=O)=O)cc2)ccc1OCC(=O)N1CCOCC1 | 0.2% | -10.8% | -8.7%
O=C(COc1ccccc1F)NNC(=O)Cc1ccc(S(=O)(=O)N2CCOCC2)s1 | -0.4% | 12.7% | 1.9%
C#CCOCCOCCOCCNc1nc(N2CCN(C(=O)CCCCCCCCCCNC(=O)[C@H](CCC(=O)O)n3cc(CCCCCN)nn3)CC2)nc(N2CCN(C(=O)CCCCCCCCCCNC(=O)[C@@H]([C@H](C)O)n3cc(C)nn3)CC2)n1 | -1.7% | 9.1% | 2.9%
CCC(=O)c1ccc(OCC(=O)OCC(=O)Nc2ccc(C)c(S(=O)(=O)N3CCCCC3)c2)cc1 | 2.1% | -9.3% | -20.5%
COc1cccc(/C=C/C(=O)OCC(=O)NCCCc2ccccc2)c1OC | 2.9% | -23.6% | -3.0%
CC(C)(C)OC(=O)C[C@H]1C/C=C\C[C@H](CC(=O)N(CCO)Cc2ccccc2)C(=O)N[C@@H](Cc2ccccc2)COC1=O | 5.4% | -7.3% | 3.6%
CC(C)CN(C(=O)CCNC(=O)c1ccccc1Cl)C1CCS(=O)(=O)C1 (stereo not drawn) | -5.0% | -13.2% | 3.5%
O=C(CSc1nncs1)NNC(=O)c1ccco1 | -6.1% | -1.5% | -8.0%
CC(Sc1nnc(-c2cccnc2)o1)C(=O)NC1CCCCC1 (stereo not drawn) | 1.2% | -4.6% | -13.4%
Cc1ccc(NC(=O)COC(=O)CCc2c(C)nc3nc(N)nn3c2C)cc1C | -2.9% | -9.9% | -0.9%
CC(C)(C)OC(=O)C[C@@H]1C/C=C\C[C@@H](CC(=O)N[C@@H](CO)Cc2ccccc2)C(=O)N2CCC[C@H]2COC1=O | -12.7% | -26.4% | -11.8%
Cc1ccc(SCC(=O)Nc2oc(C)c3c(C)n[nH]c(=O)c23)cc1C | 0.1% | -7.9% | 1.4%
COc1ccc2nc(SCC(=O)Nc3ccc4[nH]c(=O)[nH]c4c3)[nH]c2c1 | -1.5% | -6.5% | 2.8%
Cn1cccc1C(=O)NC1CCCCCC1 | -11.8% | 33.3%[activator] | ?
CC(C)CC1Nc2ncnc(N3CCN(c4ccccc4)CC3)c2N(Cc2ccc(Br)cc2)C1=O (stereo not drawn) | 1.3% | -11.6% | -6.5%
Cc1ccc(CNC(=O)[C@]2(C)CCC[C@@]3(C)C4CC[C@@]5(C)C[C@]4(CCC32)CC5=O)cc1 (stereo partly drawn) | 7.4% | 0.0% | 2.4%
O=C(O)c1ccc(-[n+]2c(-c3ccccc3)cc(-c3ccccc3)cc2-c2ccccc2)cc1 | -5.2% | 1.7% | 5.7%
COc1ccc(CCNC(=O)CS(=O)(=O)c2cn(CC(=O)N3CCCC3)c3ccccc23)cc1OC | 2.7% | -7.8% | -0.2%
CCC(C)(C)C1CCc2[nH]nc(C(=O)NC(C)C)c2C1 (stereo not drawn) | -2.0% | -3.6% | -12.3%
CN(Cc1ccccc1)C(=O)c1[nH]cnc1C(=O)NCCCCCNC(=O)OC(C)(C)C | 2.7% | ? | -6.7%
Cc1ccc(C(=O)c2c3ccccc3[n+]([O-])n2[C@@H](C)C(N)=O)cc1 | -4.7% | 4.2% | 1.8%
C[C@H](CO)N1C[C@H](C)[C@@H](CN(C)C)Oc2c(NC(=O)CCCCCC(=O)Nc3ccccc3N)cccc2C1=O | -5.1% | 46.5%[activator] | -5.5%
O=C(O)c1cc(Sc2ccc(Br)cc2)nc2ccccc12 | -1.3% | -7.1% | -5.7%
Cc1ccc(C(=O)NNC(=O)c2ccccc2)cc1S(=O)(=O)N1CCCCC1 | 1.5% | 27.6% | -9.0%
O=C(COC(=O)CCNS(=O)(=O)c1ccccc1)Nc1ccc(OC(F)F)cc1 | 3.1% | -6.5% | -9.4%
CC(C)c1cccc(-c2ccc3c(c2)S(=O)(=O)c2cccc(C(=O)NCc4ccccc4)c2C3=O)c1 | 1.0% | -10.8% | 2.3%
COC(=O)CC(NC(=O)c1cccs1)c1ccc(OC)c(OC)c1 (stereo not drawn) | 0.0% | 2.1% | 1.2%
Cc1ccc(OCCNC(=O)CNC(=O)c2ccc3c(c2)OCO3)cc1 | 0.7% | 0.3% | 12.3%
O=c1c(Cl)c(N2CCOCC2)cnn1-c1nc2ccccc2[nH]1 | -2.3% | 22.1% | -0.3%
OC(c1ccccc1)c1ccncc1 (stereo not drawn) | -4.4% | 3.5% | -2.6%
CC(=O)NC(Cc1ccc(F)cc1)C(=O)NC1CCN(c2ncccc2[N+](=O)[O-])CC1 (stereo not drawn) | -1.7% | -19.0% | 8.1%
COc1ccc(NC(=O)Nc2ccc(F)c(Cl)c2)cc1 | -1.1% | 39.7%[activator] | 2.6%
O=C(NCC(c1ccco1)N1CCCC1)c1cccc(S(=O)(=O)N2CCOCC2)c1 (stereo not drawn) | 5.6% | -16.8% | 4.4%
CCOC(=O)N1CCC(NC(=O)c2ccc(CO)c(C(=O)NC3CCN(C(=O)OCC)CC3)c2)CC1 | -1.2% | -4.3% | -1.9%
O=C(NCC(=O)N1CC=C(c2ccccc2)CC1)c1ccc(OC(F)F)cc1 | 4.7% | -17.5% | 5.1%
O=C(COC(=O)c1cc(S(=O)(=O)N2CCOCC2)ccc1Cl)NCCc1ccccc1 | 0.3% | -29.0% | 20.9%
Cc1nn(-c2ccccc2)c2nc(-c3cccs3)cc(C(=O)NN)c12 | -2.4% | -23.5% | -2.6%
COc1ccc(CCNC(=O)COC(=O)c2ccc(C)s2)cc1OC | 1.3% | -16.3% | 4.0%
Cc1cc(OCC(=O)NCC(c2ccc(F)cc2)N2CCOCC2)ccc1Cl (stereo not drawn) | -10.7% | -22.3% | -4.0%
O=C(CNS(=O)(=O)c1cccc(F)c1)OCC(=O)N1CCCC1=O | -1.2% | 0.0% | 7.3%
Cc1cc(C)n2nc(C(=O)OCC(=O)NCc3ccc(Cl)cc3)nc2n1 | -13.4% | -2.1% | -4.7%
Cc1ccc(C(=O)NCC(=O)NCC(c2cccs2)N2CCOCC2)cc1 (stereo not drawn) | -2.2% | -0.8% | -8.0%
CCc1ccccc1NC(=S)N(CCc1ccncc1)C(C)C | 4.6% | -8.4% | -3.6%
Cc1cccc(C(=O)OCC(=O)N(C)C(c2ccccc2)c2ccccc2)c1[N+](=O)[O-] | 5.3% | -10.3% | 1.7%
Cn1nc(C(=O)NNC(=O)C(CCC(N)=O)NS(=O)(=O)c2ccc(Cl)cc2)c2ccccc2c1=O (stereo not drawn) | -1.1% | -7.5% | 11.5%

Next section; the last 2 above are carried over.
SMILES | SARS PLP yeast | StopGo reporter | RE007 growth inh
Cc1cccc(C(=O)OCC(=O)N(C)C(c2ccccc2)c2ccccc2)c1[N+](=O)[O-] | 5.3% | -10.3% | 1.7%
Cn1nc(C(=O)NNC(=O)C(CCC(N)=O)NS(=O)(=O)c2ccc(Cl)cc2)c2ccccc2c1=O (stereo not drawn) | -1.1% | -7.5% | 11.5%
CC(NC(=O)c1ccco1)C(=O)N1CCN(S(=O)(=O)c2ccccc2C#N)CC1 (stereo not drawn) | 7.3% | 1.5% | -4.9%
O=C(CCCCCN1C(=O)c2cccc3cccc(c23)C1=O)NCCO | -3.5% | 15.6% | 2.3%
COc1ccc(C(N)=O)c(OCC(=O)Nc2cc(C)on2)c1 | -24.6% | -4.0% | 4.3%
Cc1cc(C)n(CC(=O)NNC(=O)COc2ccc(F)cc2Br)n1 | -0.9% | -10.5% | 29.6%
O=C(COC(=O)c1ccc[nH]c1=O)NC1CC1 | -3.3% | -16.6% | -1.1%
COc1ccc2c3n(nc2c1)CCN=C3c1cc(Cl)c(N)c(Cl)c1 | -14.3% | -23.4% | -14.7%
O=C(OCc1c(-c2ccccc2)ncc2ccccc12)c1cccs1 | -0.6% | 0.0% | -7.8%
CCOC(=O)[C@H]1[C@H]2COc3ccc(Br)cc3[C@@H]2N2C(=O)CN(Cc3ccco3)C(=O)[C@@]12C | ? | -17.1% | -2.7%
CCC(=O)NC(=S)Nc1ccc(NC(=O)COc2ccc([N+](=O)[O-])cc2)cc1 | 0.2% | -28.8% | -14.1%
CCOC(=O)[C@@H]1[C@H]2COc3ccc(Br)cc3[C@H]2N2C(=O)N(c3ccc(C(F)(F)F)cc3)C(=O)[C@]12C | -8.7% | -15.7% | 15.6%
CC(=O)O[C@H]1CC(=O)OC(C)(C)C2CC(=O)[C@]3(C)C(CC[C@@](C)([C@@H](O[C@@H]4O[C@H](CO)[C@@H](O)[C@H](O)[C@H]4O)c4ccoc4)[C@@]34O[C@@H]4C(=O)O)[C@]21C (stereo partly drawn) | -2.0% | -9.5% | -5.5%
O=P(Oc1ccccc1)(Oc1ccccc1)C(O)c1ccc(Cl)cc1 (stereo not drawn) | -4.2% | 7.5% | 11.8%
Cc1n[nH]c(C)c1S(=O)(=O)N1CCCC(C(=O)NCc2ccc(F)cc2)C1 (stereo not drawn) | -2.1% | -4.3% | 2.9%
Cc1cc(C(=O)Nc2ccccc2N2CCOCC2)no1 | -8.8% | -17.9% | -25.6%
O=C(N/N=C/c1ccccn1)c1cc(-c2ccccc2Cl)n[nH]1 | 0.6% | 22.9% | 27.3%

At a glance, part of the list above:
SMILES | SARS PLP yeast | StopGo reporter | RE007 growth inh
Cc1cc(C)n(CC(=O)NNC(=O)COc2ccc(F)cc2Br)n1 | -0.9% | -10.5% | 29.6%
O=C(COC(=O)c1ccc[nH]c1=O)NC1CC1 | -3.3% | -16.6% | -1.1%
COc1ccc2c3n(nc2c1)CCN=C3c1cc(Cl)c(N)c(Cl)c1 | -14.3% | -23.4% | -14.7%
O=C(OCc1c(-c2ccccc2)ncc2ccccc12)c1cccs1 | -0.6% | 0.0% | -7.8%
CCOC(=O)[C@H]1[C@H]2COc3ccc(Br)cc3[C@@H]2N2C(=O)CN(Cc3ccco3)C(=O)[C@@]12C | ? | -17.1% | -2.7%
CCC(=O)NC(=S)Nc1ccc(NC(=O)COc2ccc([N+](=O)[O-])cc2)cc1 | 0.2% | -28.8% | -14.1%
CCOC(=O)[C@@H]1[C@H]2COc3ccc(Br)cc3[C@H]2N2C(=O)N(c3ccc(C(F)(F)F)cc3)C(=O)[C@]12C | -8.7% | -15.7% | 15.6%
CC(=O)O[C@H]1CC(=O)OC(C)(C)C2CC(=O)[C@]3(C)C(CC[C@@](C)([C@@H](O[C@@H]4O[C@H](CO)[C@@H](O)[C@H](O)[C@H]4O)c4ccoc4)[C@@]34O[C@@H]4C(=O)O)[C@]21C (stereo partly drawn) | -2.0% | -9.5% | -5.5%
O=P(Oc1ccccc1)(Oc1ccccc1)C(O)c1ccc(Cl)cc1 (stereo not drawn) | -4.2% | 7.5% | 11.8%
Cc1n[nH]c(C)c1S(=O)(=O)N1CCCC(C(=O)NCc2ccc(F)cc2)C1 (stereo not drawn) | -2.1% | -4.3% | 2.9%
Cc1cc(C(=O)Nc2ccccc2N2CCOCC2)no1 | -8.8% | -17.9% | -25.6%
O=C(N/N=C/c1ccccn1)c1cc(-c2ccccc2Cl)n[nH]1 | 0.6% | 22.9% | 27.3%

Continuation:
SMILES | SARS PLP yeast | StopGo reporter | RE007 growth inh
CCCCc1ccc(NC(=O)C(=O)NCCN2CCN(Cc3ccc([N+](=O)[O-])cc3)CC2)cc1 | -1.8% | ? | -3.3%
COc1ccc2sc(-c3ccc(S(C)(=O)=O)cc3)c(C#Cc3cncn3C)c2c1 | -6.8% | -29.3% | 9.0%
O=C(OCc1nnc(-c2ccccc2)o1)C1CC(=O)N(Cc2ccco2)C1 (stereo not drawn) | 1.4% | 8.4% | 4.2%
Cc1ccccc1-n1nnnc1SCC(=O)NCC1(N2CCOCC2)CCCCC1 | 1.7% | -22.8% | -2.5%
Cc1noc(C)c1COC(=O)c1ccc(F)c(S(=O)(=O)N2CCOCC2)c1 | 2.0% | -34.4% | 1.3%
CC(C)(C)[C@H]1COC(=O)[C@@H](Cc2ccc(F)cc2)C/C=C\C[C@@H](CC(=O)N[C@@H](CO)Cc2ccccc2)C(=O)N1 | -1.3% | 0.0% | 1.8%
Cc1nc(N2CCCCC2)c2c(C)c(C(=O)Nc3cccc(C(F)(F)F)c3)sc2n1 | -2.9% | ? | 6.3%
COc1ccc(N2CCN(c3ccc(N4C(=O)CC(C)C4=O)cc3[N+](=O)[O-])CC2)cc1 (stereo not drawn) | -5.0% | ? | 2.9%
Cc1cccc(/C=N/Nc2ccc3ccccc3n2)c1 | -1.6% | 6.31µM* | ?
CC(=O)c1cccc(NC(=O)CCN2C(=O)C3CC=CCC3C2=O)c1 (stereo not drawn) | 9.8% | -6.7% | -17.5%
CC(C)[C@H](NC(=O)c1ccccc1)C(=O)Nc1ccc2c(c1)OCO2 | 8.7% | 46.4%[activator] | -0.7%
O=C(Nc1cccc(Cl)c1)c1ccccc1 | -3.6% | 49.7%[activator] | -6.5%
COc1ccccc1C(=O)Nc1ccc(OC(C)C(=O)N2CCOCC2)cc1 (stereo not drawn) | 0.2% | 8.6% | 5.1%
